# Beta2AR agonist: agonists of human beta-2 adrenergic receptor inducing internalization; Am2.2-beta2AR cells, FAP receptor internalization, flow cytometry; reference of the scale not given here; AID 504454; 0.43% of 340,000 active; response, % (no concentration beside the values); P07550;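 active means response above a set limit, near 3 SD of response in nonfluorescent compounds, cut at about 42% in these data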;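 further: stock transfer was 100 nL into about 11 µL; a reference agonist was the positive control; negative values mostly stem from fluorescent compounds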
# Ecoli growth: blocks Escherichia coli growth; 0.21% of 330,000 active; OD600 absorbance (no concentration beside the values); OD600, 23 h; hits give low values;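 active means OD600 absorbance below the run mean of sample wells minus 3.6 SD, in any replicate, cut at about 0.56 in these data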;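 further: stock transfer was 300 nL into about 60 µL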
# Vif TR-FRET: inhibitors of Vif binding to APOBEC3G peptide, primary screen, biochemical, TR-FRET, GST-Vif 1-94, biotin-A3G peptide, dose response retest (AID 1117319); inhibition, %; hits with a dose series show IC50 in µM; 0.57% of 260,000 active; TR-FRET GST-Vif / biotin-A3G peptide binding; higher % means a stronger effect; test concentration not given here; strong numbers were not always called active;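 active means above the screen mean plus three standard deviations and confirmed in dose response; inconclusive means results disagree or hit not tested in dose response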;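 further: Vif residues 1-94 fused to GST binding biotinylated APOBEC3G peptide 110-148; 0% = full assay without inhibitor and 100% = GST in place of GST-Vif; retest series ran down from 100 µM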
# HNF4A DNA FP: change in binding of human HNF4 alpha to DNA; HNF4a-FITC DNA binding, fluorescence polarization, 1 h; activity change, % at 10 µM; 0.3% of 360,000 active; AID 1224865; in the data active means activity change above about 30%, passing the limit was not always enough;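 further: controls were the assay level and a saturating level of protein; the project sought stronger binding though the title names inhibitors; some compounds called inactive have numbers as strong as hits; positive values seem to mean higher polarization but the record does not say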
# Target sequence (P41235 whole entry, looked up): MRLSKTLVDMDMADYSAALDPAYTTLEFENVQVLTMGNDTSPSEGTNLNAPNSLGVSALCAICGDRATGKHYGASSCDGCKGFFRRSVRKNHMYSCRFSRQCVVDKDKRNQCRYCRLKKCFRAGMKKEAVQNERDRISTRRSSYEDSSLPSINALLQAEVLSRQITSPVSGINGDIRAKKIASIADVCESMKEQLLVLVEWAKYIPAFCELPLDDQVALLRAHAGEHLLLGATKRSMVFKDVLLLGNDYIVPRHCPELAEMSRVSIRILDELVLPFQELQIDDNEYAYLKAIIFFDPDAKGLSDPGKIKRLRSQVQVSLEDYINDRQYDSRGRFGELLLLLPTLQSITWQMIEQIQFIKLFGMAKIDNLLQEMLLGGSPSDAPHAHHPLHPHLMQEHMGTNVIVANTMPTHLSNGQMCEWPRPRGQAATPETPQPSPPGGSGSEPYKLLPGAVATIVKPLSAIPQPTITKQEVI
# Bfl-1 A1 inh: inhibitors of the anti-apoptotic protein A1, read as caspase activation; MEF A1-2A-BIM cells, Caspase-Glo 3/7 luminescence, 3 h; percent of clofoctol response, vehicle zero; caspase activation, % (no concentration beside the values); 0.066% of 330,000 active;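 active means over half of replicate activation scores above 10%, or exactly half above 10 with the replicate mean above 10; inconclusive means replicate mean below 10 yet half the replicates above 10; inactive means over half of replicates below 10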;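 further: wells of about 30 µL received 50 nL stock; many hits fall short of the cut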
# UCH37 DUB inh: inhibitors of human deubiquitinating enzyme UCH37. Q9Y5K5. 0.33% of 330,000 active. purified proteasome/UCH37, Ub-AMC cleavage fluorescence. inhibition, % (concentration not given with the values);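 active means mean of two replicates above 20%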;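 further: 0% = compound-free wells with enzyme and 100% = wells lacking proteasome; stock transfer was 100 nL into about 20 µL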
# Target sequence (Q9Y5K5 whole entry, looked up): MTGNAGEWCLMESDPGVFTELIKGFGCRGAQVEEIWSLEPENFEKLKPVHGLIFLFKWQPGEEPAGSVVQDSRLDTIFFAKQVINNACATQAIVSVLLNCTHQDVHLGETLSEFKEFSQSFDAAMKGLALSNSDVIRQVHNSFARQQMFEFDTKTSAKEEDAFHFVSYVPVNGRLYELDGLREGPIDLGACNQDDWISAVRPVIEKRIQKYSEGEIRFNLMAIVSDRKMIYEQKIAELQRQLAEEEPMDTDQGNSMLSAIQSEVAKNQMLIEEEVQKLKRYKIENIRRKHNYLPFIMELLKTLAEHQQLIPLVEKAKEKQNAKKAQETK
#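 system = Proteasome-associated human UCH37 deubiquitinase | amount = 0.15 nM proteasome as dispensed | medium = pH 7.4 Tris-HCl (50 mM) with ovalbumin, ATP-MgCl2, DTT | incubation = 30 min preincubation with enzyme, 25 min cleavage at room temperature | detection = AMC fluorescence 355/460 nm | read-out basis = percent inhibition | controls = no-proteasome and no-compound wells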
# LANA-H2A inh: blocks KSHV LANA binding to histone H2A/H2B; 0.6% of 320,000 active; Q9QR71; cell-free LANA-H2A/H2B peptide, fluorescence polarization; inhibition, % (no concentration beside the values); AID 2629; in the data active means inhibition mostly above about 10%, no sharp cut-off; inactive means mostly below about 6.7%;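 further: stock transfer was 7.5 nL into about 10 µL; 0% = median of vehicle wells and 100% = median of positive control wells; one replicate is shown; the record names a cut of 25% in any replicate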
# * hit, by the source's call; ? = inconclusive; . = no result given.
SMILES,Beta2AR agonist,Ecoli growth,Vif TR-FRET,HNF4A DNA FP,Bfl-1 A1 inh,UCH37 DUB inh,LANA-H2A inh
CCCN1CCC(=O)N([C@H](CN=[N+]=[N-])Cc2ccccc2)CC1,1,.,.,4.5,0.2,0.9,-2.6
CC1(C)CC(=O)c2sc(NC(=O)C(C)(C)C)nc2C1,-4,0.66,16%,3.7,0.1,-1.3,-0.3
CC(NC(=O)CSc1nc2sc3c(c2c(=O)n1-c1ccccc1)CCCC3)c1ccccc1 (stereo unspecified),-10,0.7,-5%,3.4,.,-30,.
CC(C)CNC1CCS(=O)(=O)C1 (stereo unspecified),-7,0.7,.,-0.8,1.1,2.3,8.6
CCC1(C(=O)OC)NC(c2ccccc2OC)C2C(=O)N(C)C(=O)C21 (stereo unspecified),1,0.7,-1%,1.8,0.2,2.8,2.4
CCCCCNc1nc(N2CCCC2)c2c(c1C#N)CCN(C)C2,16,0.7,5%,-7.9,0.4,-13,1.0
O=C(CCN1CCOCC1)NCC1COc2ccccc2O1 (stereo unspecified),2,0.67,10%,1.6,-0.1,5.6,2.6
O=C(NCCCN1CCOCC1)c1ccco1,-4,0.71,-6%,-0.5,0.1,1.2,0.9
Cc1cccc2nc(CNc3ccc(F)cc3)cn12,4,0.67,5%,-1.3,-1.9,0.3,0.0
CC(C)CC(C(=O)NC1CCCCC1)N(Cc1cccs1)C(=O)c1snc(C(N)=O)c1N (stereo unspecified),-5,0.68,8%,0.6,0.7,-17,5.1
CCc1cc(=O)oc2c(C)c(OS(C)(=O)=O)ccc12,-5,0.72,.,-5.8,0.5,-39,-4.0
Cc1ccc(-c2cc(C(=O)N3CCN(c4ccc(O)cc4)CC3)c3ccccc3n2)cc1,4,0.63,.,2.8,-1.6,0.4,-2.5
Nc1nc(-c2ccc3ccccc3c2)c(C2(O)C(=O)Nc3c(Br)cc(F)cc32)s1 (stereo unspecified),2,0.74,-5%,2.0,0.2,0.6,-5.6
O=C(NCCc1ccccc1)c1coc(=O)c(Br)c1,16,0.58,-22%,4.0,1.5,7.5,-0.5
COC(=O)C(C)NC(=O)C1CCCN1S(=O)(=O)c1cc(C)c(Cl)cc1C (stereo unspecified),13,0.76,-3%,2.0,0.0,-1.0,-3.9
CCCN(CCC)CCCNC(=S)Nc1ccc2nc(N3CCN(CC)CC3)cc(C)c2c1,15,0.66,2%,-0.3,1.3,-10,-4.8
COCCCNC(=S)NNC(=O)c1ccccc1Br,1,0.71,.,0.9,-0.7,1.6,-1.5
C=CCn1c(CNC(=O)c2ccccc2F)nnc1SCC(=O)NC(C)c1ccccc1 (stereo unspecified),-2,0.63,3%,0.6,0.2,-0.2,4.4
O=C(NS(=O)(=O)Nc1ccc(Cl)cc1)c1c[nH]c2ccccc12,-2,0.66,.,0.6,-0.4,4.7,-11
COc1cc(C(=O)Sc2ccc(Cl)cc2)cc(OC)c1OC,-6,0.73,2%,-0.9,-0.4,5.3,1.3
COc1cc(/C=C2/OC(=O)c3cc([N+](=O)[O-])ccc32)cc(OC)c1OC,0,0.72,.,0.2,-0.3,6.2,6.4
COC(=O)COC(=O)c1ccccc1NC(=O)c1ccccc1,-1,0.69,0%,-2.8,-0.3,1.9,-6.0
CC(C(=O)Nc1ccc(O)cc1C(=O)O)N1C(=O)/C(=C\c2cccs2)SC1=S (stereo unspecified),4,0.7,.,-4.5,0.1,19,6.5
CSc1nnc(-c2ccc(Br)s2)n1C,-1,0.63,.,-1.9,-0.8,3.1,-5.2
COc1ccc(Cl)cc1NS(=O)(=O)c1cccc(C(=O)NC2CCN(Cc3ccccc3)CC2)c1,-5,0.65,.,-2.8,.,1.1,.
O=C1[C@@H]2Cc3c([nH]c4ccccc34)CN2C(=O)CN1CCCO,-12,0.68,4%,3.9,-0.1,2.8,-1.6
CC(C)CC(=O)NC(=S)Nc1ccccn1,-3,0.71,4%,-2.1,-0.3,-1.2,-4.5
Oc1ccc(Cl)cc1CNc1cnc2ccccc2c1,8,0.55,5%,2.0,0.7,-22,-6.4
CCc1ccc([C@H]2C(C(=O)O)=C[C@@H](CC3CCCC3)N2S(=O)(=O)c2ccc(C)cc2)cc1,6,0.65,11%,-1.3,.,3.8,.
CC(Oc1ccc(Br)cc1)C(=O)Nc1nnc(C2CC2)s1 (stereo unspecified),-5,0.62,-5%,-2.6,0.5,3.7,0.1
Cc1nnc(SCCC#N)n(CCC#N)c1=O,0,0.75,2%,1.3,0.7,-0.4,-3.1
c1csc(-c2csc3ncnc(NCCCN4CCOCC4)c23)c1,-7,0.72,-4%,-1.5,-0.6,5.4,-0.1
CCNC(=O)c1ccc(=O)n(Cc2ccc(Cl)cc2Cl)c1,-7,0.64,.,-1.1,0.5,1.2,0.9
CCOC(=O)Cn1nc(-c2ccccc2)c2ccccc2c1=O,2,0.7,-1%,-4.1,-2.5,0.0,4.6
CC(C)CCOP(=O)(c1ccc(N(C)C)cc1)C(Nc1ccccc1)c1ccc(N(C)C)cc1 (stereo unspecified),13,0.72,17%,1.3,0.4,3.4,-3.4
C=CCOc1ccc(/C=N/NC(=O)C(C)Sc2ccccn2)cc1OCC (stereo unspecified),-9,.,.,1.9,0.3,.,0.9
COc1ccc(OC)c(C(=O)Cn2cnc3ccccc3c2=O)c1,10,0.65,.,-5.4,-0.1,-2.7,0.4
CCN=C1S/C(=C\c2cc(Br)c(O)c(OC)c2)C(=O)N1CC,-2,0.7,.,24,-0.2,3.8,-4.0
O=C(CSc1nccc(=O)[nH]1)N1CCOCC1,2,0.71,.,0.5,0.0,2.9,-0.2
COCCNC(=S)Nc1ccc2nc(N3CCCC3)cc(C)c2c1,-9,0.65,.,2.7,0.2,-15,-3.0

# Copied from the list.
# Under Vif TR-FRET, `Cc1nnc(SCCC#N)n(CCC#N)c1=O` has the entry 2%
# Under Ecoli growth, `c1csc(-c2csc3ncnc(NCCCN4CCOCC4)c23)c1` has the entry 0.72

# Continuation.
SMILES,Beta2AR agonist,Ecoli growth,Vif TR-FRET,HNF4A DNA FP,Bfl-1 A1 inh,UCH37 DUB inh,LANA-H2A inh
O=C(O)c1ccc(-c2noc(-c3cccc(C(F)(F)F)c3)n2)cc1,-7,0.65,.,-0.8,?,0.7,-3.2
CSc1ccccc1C(=O)NC(C)c1ccc(-n2ccnc2)cc1 (stereo unspecified),-4,0.73,.,1.3,0.1,-1.9,-1.2
Cc1cccc(NC(=O)CCS(=O)(=O)c2ccccc2)n1,-3,0.68,.,-0.4,0.4,-0.5,-5.1
Cc1ccnc(NC(=O)c2ccc(S(=O)(=O)N3CCCCCC3)cc2)c1,5,0.67,-1%,4.6,1.3,4.9,1.8
Cc1csc(NC(=O)CSc2nc3ccccc3s2)n1,-2,0.71,16%,-2.4,1.8,3.7,-2.2
O=C(NCc1nnc(SCC(=O)N2CCCc3ccccc32)o1)c1ccco1,-1,0.66,5%,3.4,-0.3,1.4,-0.8
O=C(CN(C(=O)CCC(=O)Nc1nccs1)c1ccc2c(c1)OCCO2)NCc1ccco1,-13,0.76,-5%,2.9,-0.3,0.0,1.3
Cc1cc(C)c(S(=O)(=O)NCCCn2ccnc2)cc1C,3,0.61,-2%,-2.6,0.7,3.0,1.2
O=C(Cn1nnc(N2CCCCC2)n1)c1ccc(Cl)c(Cl)c1,12,0.62,.,3.2,-0.1,3.8,-1.4
CC(C)(C)C(=O)Nc1ccccc1C(=O)N1CCCC1,-1,0.71,.,-0.3,-1.8,1.2,0.3
CCOC(=O)c1sc(=NC(=O)c2ccccc2)n(C)c1C,-3,0.69,-1%,-8.0,-6.4,-2.5,2.8
Cc1ccc(Oc2nc3ccccc3n3cccc23)cc1,-4,0.75,2%,-1.4,-0.2,-4.3,-1.0
CC(=O)c1cccc(NC(=O)CCN2C(=O)C3C4CCC(C4)C3C2=O)c1 (stereo unspecified),-8,0.63,.,4.2,0.0,1.2,4.0
O=C(NCCOC(=O)c1ccc(Cl)cc1)c1cccnc1,2,0.65,12%,0.9,-0.6,1.5,4.1
CCOC(=O)N1CCN(C(=O)c2ccc(N(Cc3ccc(C)cc3)S(C)(=O)=O)cc2)CC1,1,0.74,2%,-3.7,0.7,1.1,3.6
Cc1cccc2c(N=NC(=O)C(C)n3cnc4ccccc4c3=O)c(O)[nH]c12 (stereo unspecified),-3,0.69,.,0.3,-0.2,8.7,-0.2
COc1ccc(NC(=O)CN(C)C(=O)c2csc3c2CCCC3)cc1,3,0.7,.,3.4,0.3,4.8,-0.4
O=c1cc(CSc2ccccc2)nc(-c2ccccc2)[nH]1,1,0.74,-11%,-2.9,-0.1,1.8,1.7
O=C1N/C(=C/c2cccn2-c2ccccc2)C(=O)N1c1cccc(Cl)c1,-2,0.71,3%,8.6,0.3,-17,7.1
CC(C)(C)c1ccc(NC(=O)COC(=O)c2ccc(NS(=O)(=O)c3ccc(F)c(F)c3)cc2)cc1,13,0.69,.,4.1,-1.7,1.9,0.1
CCOc1ccccc1CNS(=O)(=O)c1csc(C(N)=O)c1,-4,0.69,.,-4.3,-0.3,1.5,1.2
Cc1nnc(SCC(=O)N2c3ccccc3CC2C)s1 (stereo unspecified),-3,0.68,-15%,0.9,0.1,4.9,-1.4
COc1ccc(OC)c(CCNC(=O)CS(=O)(=O)Cc2nc(-c3ccc(C)cc3)oc2C)c1,-1,0.71,21%,-0.9,0.2,2.3,-2.9
Cc1cccc(C(=O)N(NC(=O)Oc2ccccc2)C(C)(C)C)c1,12,0.64,5%,2.6,0.0,3.0,-5.8
CC1=NN(c2ccccc2)C(=O)/C1=C\C=C1\N(C)c2ccccc2C1(C)C,-16,0.68,15%,70*,0.0,6.9,-17
COc1ccc(CC(=O)NC(=S)NNC(=O)COc2c(C)cccc2C)cc1,9,0.71,.,2.0,-0.1,1.4,-1.6
O=C(NCc1ccccc1)c1ccc(F)c(S(=O)(=O)N2CCOCC2)c1,1,0.69,?,6.0,0.0,3.2,-4.1
CCOC(=O)C1CCCN(c2c(NCCC(C)C)c(=O)c2=O)C1 (stereo unspecified),9,0.66,-4%,0.3,-0.1,0.7,-4.1
O=C(CCN1CCCCC1)Nc1ccccc1,1,0.72,-5%,-4.7,0.9,1.7,5.6
CC(C)N(Cc1nc(-c2ccccc2)no1)C(=O)CCCN1C(=O)c2ccccc2C1=O,-13,0.69,?,1.2,-0.4,2.0,0.7
Cc1c(CC(=O)O)c(=O)oc2c(C)c3occ(-c4ccc(Br)cc4)c3cc12,9,.,-5%,-0.2,0.6,.,2.0
O=C(NCC#CCSc1nnc(-c2cccc3ccccc23)o1)c1cccs1,.,0.7,.,.,-0.8,-2.5,.
C/C(CC(=O)Nc1c(C)cc(C)cc1C)=N\NC(=O)OC(C)(C)C,-2,.,-6%,-3.7,2.4,.,-2.3
O=C(CNCc1cccc2ccccc12)Nc1ccccc1[N+](=O)[O-],3,0.7,9%,-2.7,0.3,3.4,.
Cc1cc(=O)oc2cc(OCC(=O)N3CC[C@@]4(O)CCCC[C@H]4C3)ccc12,1,0.76,.,2.6,0.3,-26,5.0
Cc1ccc(CNC(=O)C2CCN(c3nn4c(=O)cc(C)nc4s3)CC2)cc1,7,0.65,.,4.3,-0.9,-3.0,-4.0
CCOC(=O)c1c(C)[nH]c(C)c1C(=O)CSc1nc2ccccc2n1CCOC,-4,0.72,22%,-2.1,?,7.3,4.2

# HNF4A DNA FP: entries above that show a hit
SMILES	Beta2AR agonist	Ecoli growth	Vif TR-FRET	HNF4A DNA FP	UCH37 DUB inh	LANA-H2A inh
CC1=NN(c2ccccc2)C(=O)/C1=C\C=C1\N(C)c2ccccc2C1(C)C	-16	0.68	15%	70*	6.9	-17
